Bioassay records deposited in PubChem BioAssay by National Center for Advancing Translational Sciences (NCATS).
ClpP mod = qHTS Assay for Activators of ClpP. ATP-dependent Clp protease proteolytic subunit (Bacillus subtilis (strain 168)), P80244. purified B. subtilis ClpP, FRET peptide cleavage, 20 min. Potency, µM (top dose mostly 57.5 µM), inactives show top-dose activity change, negative = active. 1.9% of 340,000 active. AID 651965, 2013; active = well fitted falling curve with a large enough effect; inconclusive = small, poorly fitted or top-dose-only effect; inactive = no such curve, though single readings can be large or run the other way; also: the source files actives as falling curves though it sought activators and does not explain the sign; nearly all actives have a fitted effect of over 65% in size; many hits overshoot -100%
Target sequence (P80244 whole entry, looked up): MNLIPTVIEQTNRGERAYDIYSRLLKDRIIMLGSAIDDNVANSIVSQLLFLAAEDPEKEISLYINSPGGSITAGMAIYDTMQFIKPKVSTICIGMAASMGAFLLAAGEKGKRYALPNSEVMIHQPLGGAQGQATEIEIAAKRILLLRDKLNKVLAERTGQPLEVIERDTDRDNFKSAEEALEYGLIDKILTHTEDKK
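ClpP 10 microg/mL final, pH 8 Tris/KCl buffer with BSA, glycerol, Tween-20; compound pinned in; FRET-FV substrate; RT 20 min; Ex320/Em430; ΔFRET vs ADEP 5.8 microM, DMSO, no enzyme.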
* hit, by the source's call; ? = inconclusive; & = joins results of further samples. Potency is read from the fitted curve at half-maximal effect.

SMILES	ClpP mod
Cc1c(C)n(Cc2ccc(F)cc2)c2ccc(C(=O)N3CCN(c4ccc(F)cc4)CC3)cc12	-26%
CCOc1ccccc1CNCc1c(C(=O)O)n(Cc2ccc(F)cc2)c2cc(C)ccc12	2.9%
CN1CCN(CCNC(=O)c2cnn(-c3ccc(F)cc3)c2C2CCN(C(=O)OC(C)(C)C)CC2)CC1	0.7%
CCn1c(=O)cc(SCC(=O)N2CCN(c3cc(C)ccc3C)CC2)c2ccccc21	-13%
CCN(CC)c1ccc(C(=O)N2CCc3c([nH]c4ccccc34)C2c2ccc(F)cc2)cc1 (stereo unspecified)	-14%
O=C(C[n+]1cc(Br)cc2ccccc21)c1ccc(O)c(O)c1	-2.1%
Fc1ccc(-c2nnc(CN3CCN(c4ccccn4)CC3)o2)cc1	-3.7%
CCOC(=O)C1CCCN(C(=O)c2cc3c(Cl)nc4ccccc4c3s2)C1 (stereo unspecified)	-12%
O=C(NC1CCCCCC1)C1CCC(CNS(=O)(=O)c2cccc3cccnc23)CC1 (stereo unspecified)	0.7%
COc1cc2nc(N3CCN(C)CC3)nc(NC(C)C)c2cc1OC	4.1%
Cc1ccc(C2C=C(c3ccc(Cl)cc3)Nc3nc(NC(=O)CCC(=O)O)nn32)cc1 (stereo unspecified)	6.3µM*
CCOc1ccc(C(=O)N(Cc2nc(-c3cccc(C)c3)no2)C(C)C)cc1	0.0%
CCOc1ccc(C(=O)N2CCN(CCc3ccccn3)CC2)cc1	0.0%
CCc1ccc(S(=O)(=O)Nc2ccc(-c3ccc(N4CCCC4)nn3)cc2)cc1	-8.9%
Cc1cccn2c(=O)c(/C=C(\C#N)c3nc4ccccc4n3C)c(Oc3ccc(Cl)cc3)nc12	-25%

Reprinted from the entries so far for reference:
SMILES	ClpP mod
CCOc1ccc(C(=O)N(Cc2nc(-c3cccc(C)c3)no2)C(C)C)cc1	0.0%
CCOc1ccc(C(=O)N2CCN(CCc3ccccn3)CC2)cc1	0.0%
CCc1ccc(S(=O)(=O)Nc2ccc(-c3ccc(N4CCCC4)nn3)cc2)cc1	-8.9%
Cc1cccn2c(=O)c(/C=C(\C#N)c3nc4ccccc4n3C)c(Oc3ccc(Cl)cc3)nc12	-25%

The list continues:
SMILES	ClpP mod
CCOC(=O)c1sc(NC(=O)c2nc3nc(C)cc(C(F)F)n3n2)c(C(=O)OC)c1C	-1.7%
O=C(NCc1ccc2c(c1)OCO2)c1ccc2c(c1)N(Cc1ccc(F)cc1)C(=O)c1ccccc1S2=O (stereo unspecified)	-9.3%
Cc1ccc2oc(C(=O)Nc3c(C(=O)c4ccc(C)c(F)c4)oc4ccccc34)cc(=O)c2c1	-3.1%
COc1cc2c(=O)c(C(=O)c3ccc(F)cc3)cn(Cc3cccc(F)c3)c2cc1OC	0.8%
CCc1ccc(NC(=O)CN2C(=O)C(c3ccccc3)=NC23CCCCCC3)cc1	-5.7%
CCOc1ccc(CNC(=O)Cn2c(=O)c3cccn3c3cccnc32)cc1	-13%
CCOCCCNC(=O)c1c(NC(=O)c2nc(SC)ncc2Cl)sc2c1CCCC2	1.3%&-1.8%
Cc1cc2nc(-c3ccc(NC(=O)c4ccc(OCC(C)C)cc4)cc3)oc2cc1C	-0.3%
CC(C)(C)OC(=O)N1CCC(c2c(C(=O)NCCc3ccsc3)cnn2-c2ccccc2Cl)CC1	-0.5%
Cc1ccc(N2CCN(S(=O)(=O)c3ccc(Cl)c4ccccc34)CC2)c(C)c1	-0.2%
Cc1ccc(S(=O)(=O)N2CCN(Cc3noc(CCC(=O)N4CCCCC4)n3)CC2)c(C)c1	-0.4%
Cc1cccc(OCCn2nnc3sc4c(c3c2=O)CCCC4)c1	0.9%
CC(=O)c1ccc(S(=O)(=O)N2CCn3cccc3C2c2ccccc2F)cc1 (stereo unspecified)	-2.0%
Cc1cc(Nc2cc(Cl)ccc2C)n2nc(-c3ccccc3)nc2n1	24%
O=C(NCc1ccc(F)cc1)C1CCCN(c2ncnc3onc(-c4ccc(F)cc4)c23)C1 (stereo unspecified)	-12%

As entered above.
CCOCCCNC(=O)c1c(NC(=O)c2nc(SC)ncc2Cl)sc2c1CCCC2 in ClpP mod is listed with 1.3%&-1.8%
CCOC(=O)c1sc(NC(=O)c2nc3nc(C)cc(C(F)F)n3n2)c(C(=O)OC)c1C in ClpP mod is listed with -1.7%
Cc1cc(Nc2cc(Cl)ccc2C)n2nc(-c3ccccc3)nc2n1 in ClpP mod is listed with 24%

The results go on.
SMILES	ClpP mod
Cc1ccccc1NC(=O)c1cccc2c(=O)c3c([nH]c12)CCCC3	0.0%
COc1cc(CNC(=O)c2cc(-c3ccccc3)n[nH]2)cc(OC)c1OC	0.4%
COc1ccc(-c2cc3nc(C)c(CCC(=O)N4CCN(c5cccc(Cl)c5)CC4)c(C)n3n2)c(OC)c1	?
Cc1cccc(NC(=O)Cn2c(=O)n(CC3CCC(C(=O)NCCc4ccccc4)CC3)c(=O)c3ccccc32)c1 (stereo unspecified)	-5.9%
Cc1ccc(CN2C(=O)c3ccccc3S(=O)(=O)c3ccc(C(=O)OCC4CCCO4)cc32)cc1 (stereo unspecified)	-6.6%
CCOC(=O)c1cc(C)n(CC2CCC(C(=O)Nc3ccc(Cl)cc3)CC2)c1C (stereo unspecified)	-6.7%
Cc1ccc(C(=O)N2CCCCC2CCN2CCCCC2)cc1 (stereo unspecified)	-1.6%
COC(=O)c1ccc(NC(=O)c2c(NCc3cccc(F)c3)sc3c2CCCC3)cc1	-0.8%
CCc1ccc(NC(=O)CSc2nccn2-c2ccc(F)cc2)cc1	-4.5%
O=C(CCCn1c(=O)c2ccccc2n(Cc2ccc(F)cc2Cl)c1=O)NCCc1ccc(Cl)cc1	-0.6%
COc1ccccc1N1CCN(CCCNC(=O)c2cnn(-c3cccc(Cl)c3)c2C2CCN(C(=O)OC(C)(C)C)CC2)CC1	-1.7%
COCCCNC(=O)C1CCN(c2nc3ccc(Cl)cc3[nH]2)CC1	4.6%
CC(=O)Nc1nonc1-c1nnc(SCc2ccccc2C)n1C	0.0%
Cc1c(C(=O)N(Cc2cccc(F)c2)C2CCS(=O)(=O)C2)oc2cc(Br)ccc12 (stereo unspecified)	-10%
Cc1ccccc1NS(=O)(=O)c1ccc(Br)s1	-3.7%

Two of the compounds above, as labelled records.
molecule: Cc1ccc(CN2C(=O)c3ccccc3S(=O)(=O)c3ccc(C(=O)OCC4CCCO4)cc32)cc1 (stereo unspecified)
  ClpP mod: -6.6%
molecule: CCOC(=O)c1cc(C)n(CC2CCC(C(=O)Nc3ccc(Cl)cc3)CC2)c1C (stereo unspecified)
  ClpP mod: -6.7%

Carrying on.
SMILES	ClpP mod
CCc1ccc(NC(=O)C2CCC(CNS(=O)(=O)c3ccc4c(c3)C(C)(C)C(=O)N4C)CC2)cc1 (stereo unspecified)	0.5%
CCc1nn2c(=O)cc(COC(=O)c3cccc(NC(=O)c4ccccc4C)c3)nc2s1	?
O=C(Nc1ccccc1F)c1ccc2c(Cl)c3c(nc2c1)CCC3	-1.4%
Cc1ccccc1Cn1nc(C)c(NC(=O)c2cc(-c3ccc(F)cc3)on2)c1C	-1.0%
O=C(COc1ccc(Br)cc1Cl)Nc1ncn[nH]1	-1.8%
O=C1Nc2ccccc2Oc2cc(Oc3cccc(Cl)c3)ccc21	0.5%
O=C(COc1ccccc1C(=O)Nc1ccccc1)Nc1cccc(F)c1	-3.1%
CCCOCc1cc(CN2CCN(c3ccccc3OC)CC2)c(O)c2ncccc12	1.1%
CCOc1ccc(NC(=O)N(Cc2ccc(CC)cc2)Cc2cn[nH]c2-c2ccc(OC)cc2)cc1	1.5%
COc1ccc(NCc2cc3cc4c(cc3n(CC(=O)Nc3ccc(C)c(C)c3)c2=O)OCO4)cc1	60%
CCN(CC)CCCNC(=O)c1c2c(nc3ccccc13)C(=O)N(C1CCCCC1)C2	14µM*
O=C(NCc1cccc(F)c1)C1CCCN(C(=O)N2CCOc3ccccc32)C1 (stereo unspecified)	-1.9%
CCN1CCN(C(c2ccc(SC)cc2)c2c(O)cc(C)n(Cc3ccco3)c2=O)CC1 (stereo unspecified)	-13%
Cc1nc2sc(C)c(C)n2c(=O)c1S(=O)(=O)NCCc1ccc(Cl)cc1	4µM*
CCc1ccc(NC(=O)c2ccc3c(c2)c(C)c(C)n3Cc2ccccc2)cc1	22µM*
CCOc1ccc(CCNC(=O)c2csc3c2CCCCC3)cc1	-1.2%
CCc1ccc(C(=O)c2cn(CC(=O)NCCc3ccccc3)c3nc(C)ccc3c2=O)cc1	0.0%
CCOc1ccc(-c2nnc(SCC(=O)NCc3ccccc3)nc2-c2ccc(OCC)c(OC)c2)cc1OC	0.9%
COc1cccc(Nc2nc3ccc(C)cc3nc2-n2nc(C)cc2C)c1	?
CSc1cccc(Nc2cc(C(=O)NCCc3ccc(Cl)cc3)c3ccccc3n2)c1	-20%
Cc1ccc(-c2nc3cc(C(C)C)ccc3o2)cc1NC(=O)c1cc2ccccc2o1	?
CCSc1ncc(Cl)c(C(=O)Nc2nnc(CC)s2)n1	-4.2%
Cc1c(C(=O)OC(C)C)sc(NC(=O)C2c3ccccc3Oc3ccccc32)c1C(=O)OC(C)C	?
COC(=O)c1scc(-c2ccc(C)cc2)c1S(=O)(=O)Nc1c(C)cc(C)cc1C	-25%
COc1cccc(CC(=O)Nc2ccc(-c3nc4ccccc4s3)cc2)c1	4.2%
CCOC(=O)c1cc(-c2ccccc2)n(-c2cccc(C(=O)N(C)c3ccc(C)cc3)c2)c1C	0.0%
CCOC(=O)c1c(NC(=O)c2ccc(OC)cc2)sc2c1CCCCC2	-17%
Cc1ccc(NC(=O)CSc2nc3ccc(NC(=O)c4ccco4)cc3s2)cc1	3.6%
CCOC(=O)c1c(-c2ccccc2)oc2ccc(OCc3cccc(Br)c3)cc12	3.9%
COc1ccc(S(=O)(=O)NCc2ccc(C(=O)NCc3ccccc3)cc2)cc1	1.3%

Shown with each value named: four of the compounds above
CSc1cccc(Nc2cc(C(=O)NCCc3ccc(Cl)cc3)c3ccccc3n2)c1
- ClpP mod: -20%
Cc1ccc(NC(=O)CSc2nc3ccc(NC(=O)c4ccco4)cc3s2)cc1
- ClpP mod: 3.6%
CCOC(=O)c1c(NC(=O)c2ccc(OC)cc2)sc2c1CCCCC2
- ClpP mod: -17%
CCc1ccc(C(=O)c2cn(CC(=O)NCCc3ccccc3)c3nc(C)ccc3c2=O)cc1
- ClpP mod: 0.0%

Other results:
SMILES	ClpP mod
Cc1ccc(NC(=O)CCSc2nc(-c3ccc4c(c3)OCO4)cc(C(F)(F)F)n2)c(C)c1	0.5%
CC(=O)c1cccc(NC(=O)CN2C(=O)c3ccccc3Sc3ncccc32)c1	-0.2%
COc1ccccc1N1CCN(C(=O)C(CCSC)NS(=O)(=O)c2ccc3c(c2)oc(=O)n3C)CC1 (stereo unspecified)	-0.5%
Cc1ccc2c(CN3CCN(c4ccc(Cl)cc4)CC3)cc(=O)oc2c1	0.3%
COc1ccc(C)cc1NC(=O)c1cc(S(=O)(=O)N2CCC(C)CC2)ccc1F	48%
Cc1ccc(Sc2c(C)nn(C(=O)COc3ccc(F)cc3)c2C)cc1	-3.2%
CCOc1ccc(S(=O)(=O)c2cn(Cc3ccccc3C)c3ccc(OC)cc3c2=O)cc1	?
Cc1cc(-c2ccc(C)c(S(=O)(=O)Nc3ccccc3C(F)(F)F)c2)on1	-2.4%
CCOC(=O)N1CCc2c(sc(NCc3sccc3C)c2C(=O)Nc2cc(OC)ccc2OC)C1	-4.3%
COc1ccc2c(c1)C=C/C2=C\c1ccc(N(C)C)cc1	0.8%
COc1ccc(NC(=O)Cn2c(=O)n(-c3cccc(C(F)(F)F)c3)c(=O)c3sccc32)cc1	-4.9%
Cc1ccccc1CNC(=O)c1sc2ncnc(N(C)C3CCCCC3)c2c1C	?
CCN(CC)c1ccc(NC(=O)c2sc3nc(-c4ccccc4)cn3c2C)cc1	-3.1%
Cc1cc(C)cc(NC(=O)C(Cc2ccccc2)NS(=O)(=O)c2ccc3c(c2)c(=O)n(C)c(=O)n3C)c1 (stereo unspecified)	-0.3%
O=C(CSc1nc(-c2cccs2)nc2cc(=O)[nH]n12)Nc1cccc(C(F)(F)F)c1	0.3%
Cc1noc2ncnc(NCCc3ccccc3)c12	-1.6%
Cc1cc(C)cc(-n2ccnc2SCC(=O)Nc2nc3ccc(C)cc3s2)c1	-2.6%
CCc1ccc2oc(C(=O)Nc3cc(Cl)ccc3OC)cc(=O)c2c1	1.2%
Cc1c2cnn(CC(=O)NCc3ccc(F)cc3)c(=O)c2c(C)n1Cc1ccccc1Cl	-1.3%
Cc1nn(C(C)C(=O)N2CCN(c3ccc(F)cc3)CC2)c(=O)c2c1sc1ccccc12 (stereo unspecified)	-1.9%
CCc1ccc(NC(=O)CN(c2ccc(C)cc2)S(=O)(=O)c2cccs2)cc1	-2.4%
COC(=O)c1ccccc1NC(=O)Cn1nc(C)c2nn(-c3ccc(Cl)cc3)c(C)c2c1=O	-6.4%
O=C(CCC1N=C2c3ccccc3N=C(SCC(=O)Nc3ccc(F)cc3)N2C1=O)NCc1cccs1 (stereo unspecified)	-7.2%
CCOc1ccccc1NC(=O)Cn1c(=O)n(Cc2cccs2)c(=O)c2cccnc21	-9.6%
C(=Nc1ccc(/C=C/c2ccnc3ccccc23)cc1)Nc1ccc(/C=C/c2ccnc3ccccc23)cc1	-6.7%
COc1cc(NS(=O)(=O)c2ccc(NC(=O)c3cccc(F)c3)cc2)nc(OC)n1	0.1%
Cc1ccc(NC(=O)Cn2nc(-c3ccncc3)ccc2=O)cc1Cl	0.4%
Cc1cccc(S(=O)(=O)N2CCN(c3nc(-c4cccs4)nc4ccccc34)CC2)c1	-8.2%
COc1ccccc1-c1noc(-c2ccc(NCCc3ccccc3)c([N+](=O)[O-])c2)n1	-1.4%
Cc1cc(NCc2ccccc2Cl)n2cnnc2n1	0.0%
Cc1ccc(CCNC(=O)c2ccc3c(c2)N(Cc2cccc(C)c2)C(=O)c2ccccc2S3(=O)=O)cc1	-2.5%
CCCN(CCC)CCCNC(=O)C1CCN(c2nc3ccc(CC)cc3s2)CC1	-0.9%

Not all compounds are listed; the hit share may differ from the screen's.
